gsp antag: qHTS for Antagonists of gsp, the Etiologic Mutation Responsible for Fibrous Dysplasia/McCune-Albright Syndrome: qHTS. gsp-mutant cells, cAMP HTRF, 30 min; control for the full effect not named in the record. 0.4% of 340,000 active. Potency, µM (series often up to 76.9 µM), for the others: at the highest dose activity change, negative = inhibition, actives largely listed as inhibitors; active = falling curve of any shape with a large fitted effect; inconclusive = falling curve, mostly with a smaller effect; inactive = flat or rising curve; cell line not stated here;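 further: intracellular cAMP measured with PDE inhibitor Ro 20-1724 present during compound exposure; potency means the concentration at half of the fitted maximal effect; on the % scale 0 is the no-effect control and ±100 the full control effect; nearly all actives have a fitted effect of over 65% in size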
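Cells in G418 medium, seeded 16-24 h, 37C; buffer exchange to DPBS + 1 mM CaCl2, 0.5 mM MgCl2, 0.05% BSA; cpds in DMSO + […] (300 uM stock), 30 min 37C; HTRF cAMP detection.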
Menin-MLL FL inh: qHTS Assay for Inhibitors Targeting the Menin-MLL Interaction in MLL Related Leukemias: Competition With Fluorescein Labeled MLL-derived Peptide; Fluorescence polarization, fluorescein-MLL peptide displacement from menin; 290,000 tested, under 10 active; FP activity change, % at 61.4 µM; inconclusive = falling polarisation curve, or a change in total fluorescence; inactive = total fluorescence flat and polarisation flat or rising; no compound was filed as active; the % refers to the polarisation; negative = inhibition;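 further: % of control where 0% means no effect; inhibitors lower the polarisation; unlabelled MLL peptide was the positive control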
TRPML1 agonist: qHTS for Agonists of the Human Mucolipin Transient Receptor Potential 1 (TRPML1). 0.12% of 410,000 active. TRPML1-expressing cells, Ca2+ dye fluorescence, FDSS; host cell line not named in the record; reference of the full effect not given here. AID 624414, 2012. activation, % (test concentration not listed); in the data active = activation above about 50%; inconclusive = about 30% to 50%; inactive = below about 30%; further: 0% is about no effect; the text of the record puts the active cut at 80%
Target sequence (Q9GZU1 whole entry, looked up): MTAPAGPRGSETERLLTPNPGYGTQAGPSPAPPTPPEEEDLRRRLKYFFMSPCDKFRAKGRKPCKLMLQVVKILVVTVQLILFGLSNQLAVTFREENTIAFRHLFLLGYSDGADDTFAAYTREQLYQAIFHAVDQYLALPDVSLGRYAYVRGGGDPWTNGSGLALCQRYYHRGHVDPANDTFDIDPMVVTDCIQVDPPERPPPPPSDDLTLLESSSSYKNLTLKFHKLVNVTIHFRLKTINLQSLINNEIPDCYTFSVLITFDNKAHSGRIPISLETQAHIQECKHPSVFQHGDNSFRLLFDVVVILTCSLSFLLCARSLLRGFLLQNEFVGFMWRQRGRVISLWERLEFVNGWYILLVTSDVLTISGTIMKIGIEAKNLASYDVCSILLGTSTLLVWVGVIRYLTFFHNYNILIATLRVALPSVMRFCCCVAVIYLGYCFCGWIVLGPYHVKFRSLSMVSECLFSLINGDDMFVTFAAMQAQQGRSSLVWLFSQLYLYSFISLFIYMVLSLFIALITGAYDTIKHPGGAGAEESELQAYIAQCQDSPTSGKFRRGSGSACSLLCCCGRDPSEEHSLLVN
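Tet-induced TRPML1-DL cells, 1,500 per well, cultured overnight, were loaded with a no-wash Ca2+ dye for 45–90 min. Calcium fluorescence was recorded on the FDSS for 110 s after compound addition, before the EC80 agonist (4 uM 54-4) was added.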
gsp ag: qHTS for Agonist of gsp, the Etiologic Mutation Responsible for Fibrous Dysplasia/McCune-Albright Syndrome: qHTS. AID 624287, 2012. gsp mutant cells, cAMP HTRF, 30 min; control for the full effect not named in the record. 0.13% of 340,000 active. Potency, µM (doses to about 76.9 µM), for inactives: at the top dose activation (cAMP increase), usual class: activators; active = well fitted activation curve with a large enough effect; inconclusive = small, poorly fitted or top-dose-only effect, or another doubt; inactive = no such curve, though single readings can be large or run the other way; cell line not stated here;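 further: phosphodiesterase inhibitor Ro 20-1724 added with compounds to block cAMP breakdown; potency means the concentration at half of the fitted maximal effect; nearly all actives have a fitted effect of over 60% in size; about a fifth of the inactives were tested at one dose only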
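Cells stably selected in G418 were plated at 2000/well, grown 16-24 hr, then given compounds in DMSO with the PDE inhibitor […] (300 uM solution added) for 30 min at 37C; cAMP was read by HTRF.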
TRPML1 blocker: qHTS for Inhibitors of the Human Mucolipin Transient Receptor Potential 1 (TRPML1) | TRPML1-inducible cells, Ca2+ dye fluorescence, FDSS; hits give low values; inhibition of EC80 agonist-evoked calcium signal | activity change, negative = inhibition, % (test concentration not listed) | 0.02% of 390,000 active; in the data active means activity change below about -50%; inconclusive means about -30% to -50%; inactive means above about -30%;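 further: stimulus is agonist 54-4 at its EC80 concentration; on the % scale 0 is the no-effect control and ±100 the full control effect; compound concentration not given in the record; the text of the record puts the active cut at -80%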
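Tet-induced TRPML1-DL cells loaded with Ca8 no-wash calcium dye were read kinetically on FDSS. Compound addition was followed by EC80 agonist 54-4 (4 uM final); inhibition was read over 110 s.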
ClpP mod: qHTS Assay for Activators of ClpP; ATP-dependent Clp protease proteolytic subunit (Bacillus subtilis (strain 168)), P80244; purified B. subtilis ClpP, FRET peptide cleavage, 20 min; Potency, µM (doses to about 57.5 µM), for inactives: top-dose activity change, negative = active; 1.9% of 340,000 active; AID 651965, 2013; active = well fitted falling curve with a large enough effect; inconclusive = small, poorly fitted or top-dose-only effect; inactive = no such curve, though single readings can be large or run the other way; further: potency means the concentration at half of the fitted maximal effect; the source files actives as falling curves though it sought activators and does not explain the sign; nearly all actives have a fitted effect of over 65% in size; many hits overshoot -100%
Target sequence (P80244 whole entry, looked up): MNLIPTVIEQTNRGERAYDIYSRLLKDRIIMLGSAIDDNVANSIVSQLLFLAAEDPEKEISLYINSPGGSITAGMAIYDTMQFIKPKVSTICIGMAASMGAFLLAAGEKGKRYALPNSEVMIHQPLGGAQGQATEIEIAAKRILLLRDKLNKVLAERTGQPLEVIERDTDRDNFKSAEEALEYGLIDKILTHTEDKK
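ClpP 10 microg/mL final, pH 8 Tris/KCl buffer with BSA, glycerol, Tween-20; compound pinned in; FRET-FV substrate; RT 20 min; Ex320/Em430; ΔFRET vs ADEP 5.8 microM, DMSO, no enzyme.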
* marks the source's active call; other numbers are inactive results; ? = inconclusive; · = not tested or not shown; [ ] = another dose, or the depositor's remark.

SMILES	gsp antag	Menin-MLL FL inh	TRPML1 agonist	gsp ag	TRPML1 blocker	ClpP mod
Cc1csc(NC(=O)CSc2ccc(-c3ccccn3)nn2)n1	-1.4%	-3.7	0.7	7.8%	-9.0	-2.8%
CN(C)C1CCN(C(=O)c2cccc(OC3CCN(S(=O)(=O)N(C)C)CC3)c2)C1 (stereo not drawn)	0.9%	·	0.5	?	-4.3	1.2%
COc1ccc(-c2nc3ccccc3s2)cc1NC(=O)c1cccc(F)c1	·	·	2.0	·	-2.3	73.5%
CSc1nc(C)cc(Oc2ccc(OCCOc3ccccc3)nn2)n1	-2.8%	-0.8	5.1	8.4%	6.9	1.6%
CC(C)CN(C(=O)COC(=O)c1cc2ccccc2cc1O)c1c(N)n(Cc2ccccc2)c(=O)[nH]c1=O	-7.3%	·	5.4	27.7%[15.4 µM]	-4.3	·
COc1cc(C(=O)NCCSc2ccccc2)cc(OC)c1OC	4.3%	-1.4	-0.4	-10.0%	-2.6	·
O=C(Nc1ccccc1)C1CCCN1C(=O)NCc1ccccc1 (stereo not drawn)	11.7%	2.1	-0.7	19.8%[15.4 µM]	36.1	-0.8%
Cc1ccc(/C=N/n2c(-c3cccc(Cl)c3)n[nH]c2=S)o1	-7.9%	4.0	-0.3	-5.2%[15.4 µM]	9.0	·
O=[N+]([O-])c1cccc(COc2ccccc2CN2CCCC2)c1	-5.1%	·	-0.6	·	-16.4	-0.2%
N#Cc1nccnc1N1CCN(C(=O)Nc2ccccc2)CC1	-31.6%	0.5	0.3	-8.5%[15.4 µM]	5.0	-3.8%
CCN(CC)CCCNC(=O)c1cc(Nc2ccc(OC)cc2)nc2ccccc12	4.0%	0.8	0.2	-17.3%	-8.5	·
Cc1ccc(C(=O)/C=C2/NC(=O)CS2)cc1	3.8%	4.3	0.1	1.9%	13.9	-1.2%
COC(=O)c1ccc2nc(-c3ccc4c(c3)OCO4)cn2c1	6.5%	-2.6	-0.3	-1.3%[15.4 µM]	2.0	·
CC(C)C[C@@H](COc1ccccc1)N1CCN(CC(C)C)CCC1=O	4.0%	3.5	-1.2	·	33.9	1.4%
COc1ccc(CCNC(=O)c2ccc(S(=O)(=O)N(C)c3ccccc3)cc2)cc1OC	?	1.6	0.0	13.7%[15.4 µM]	-10.7	·
COc1cc(NC(=O)CCN2CC(C)OC(C)C2)cc(OC)c1 (stereo not drawn)	-0.9%	3.0	-0.2	-1.2%[15.4 µM]	-15.0	-2.3%
Cc1ccc(CNC(=O)C2CCC(=O)N2C2CCCCC2)cc1 (stereo not drawn)	6.9%	1.7	-0.2	8.9%	5.5	-2.7%
O=C(CCNS(=O)(=O)c1ccc(Br)cc1)Nc1cccc(F)c1	7.8%	0.3	-0.5	-1.6%[15.4 µM]	3.6	·
COc1ccc(Nc2nnc(SCC(=O)NC3CCS(=O)(=O)C3)s2)cc1 (stereo not drawn)	5.8%	·	1.2	3.6%[15.4 µM]	-11.6	·
N#CCc1nn(-c2ccc(Cl)cc2)c(N)c1C#N	-14.6%	7.9	-0.6	-9.9%	31.8	-0.6%
COc1cc(Nc2nc(SCc3ccccc3Cl)nc3ccccc23)cc(OC)c1	·	·	2.1	·	41.3	28.2µM*
Cc1ccc(Cl)cc1N1CCN(C(=O)Cn2c(-c3cccs3)cc3cc(F)ccc32)CC1	·	·	0.2	·	27.9	8.91µM*
Cc1noc(/C=C/N(C)C)c1S(=O)(=O)N1CCCC(C(=O)NC2CCCCC2)C1 (stereo not drawn)	-6.8%	0.2	0.8	0.3%	-1.6	-1.5%
O=C(NC1CCCC1)C(c1ccccc1)N(C(=O)c1csnn1)C1CCCC1 (stereo not drawn)	1.7%	·	-0.4	8.6%[15.4 µM]	10.1	·
C/C(=N\NC(=O)c1cc2ccccc2cc1O)c1ccccn1	-10.8%	·	0.4	-0.6%[15.4 µM]	1.5	·
COc1ccc(CN(C)C(=O)CNC(=O)Cc2cccc3ccccc23)c(OC)c1OC	-11.1%	·	0.4	-15.3%	35.2	0.5%
O=C(O)CCCCCNc1nc(-c2ccccc2)nc2ccccc12	-22.9%	-6.0	0.6	?	-6.7	-2.6%
Cc1ccc(NC(=O)NCCN2CCCCC2)cc1C	6.6%	3.6	-0.1	-9.6%	-3.8	1.3%
CCc1ccccc1N(CC(=O)NC(C)c1ccccc1)S(C)(=O)=O (stereo not drawn)	4.8%	-2.2	·	-25.0%	·	0.1%
C=CCc1cccc2cc(C(=O)Nc3cccc(C(=O)O)c3)c(=O)oc12	-4.8%	-0.5	-0.8	?	2.1	-0.2%
COc1cccc(C2=NN(C(=O)c3cccs3)C(O)(C(F)(F)F)C2)c1 (stereo not drawn)	-6.6%	0.2	1.6	3.4%[15.4 µM]	-6.4	·
Cc1nc2sccn2c(=O)c1S(=O)(=O)N1CCN(c2ccccc2)CC1	1.9%	5.5	0.1	?	-12.4	0.0%
Nc1ccc2oc(CCc3ccccc3)nc2c1	-4.2%	2.4	-0.5	3.3%	-6.9	-24.8%
CCc1c(O)cc2n(c1=O)-c1ccc(Cl)cc1C2(C)C	44.7µM*	2.3	0.1	?	0.2	5.7%
O=C(COC(=O)/C=C/c1cccc(C(F)(F)F)c1)Nc1ccc(Cl)cn1	15.2%	·	-0.2	-29.6%	-2.0	0.1%
CC(=O)O[C@]1(C(C)=O)CCC2C3C=C(C)C4=CC(=O)CC[C@]4(C)C3CC[C@@]21C (stereo partly drawn)	-13.6%	1.5	1.4	-14.6%	75.2	1.1%
COc1ccccc1OCCNC(=O)CSC(=S)N1CCCC1	-7.0%	·	-0.2	-9.2%	-5.7	-1.3%
CCOc1cccc2sc(N(CCN(C)C)C(=O)CCS(=O)(=O)c3ccccc3)nc12	4.1%	·	-0.3	-5.8%[15.4 µM]	-16.4	0.2%
CN(C)S(=O)(=O)c1ccc(C(=O)Nc2ccccc2[N+](=O)[O-])cc1	3.9%	4.2	-0.2	0.7%	-4.7	1.4%
COc1ccc(C(CNc2nc(-c3cccnc3)nc3ccccc23)N(C)C)cc1 (stereo not drawn)	-6.3%	-0.8	0.4	2.5%[15.4 µM]	18.6	·
O=[N+]([O-])c1ccc(S(=O)(=O)N2CCN(c3ccc(N4CCOCC4)nn3)CC2)cc1	8.0%	·	1.9	-19.6%[15.4 µM]	-12.0	·
Cc1cccc(CCNC(=O)C2CCN(S(=O)(=O)N3CCOCC3)CC2)c1	5.9%	·	1.9	15.6%	-2.2	-0.9%
Cc1nc(OCc2c(C)noc2C)c2ccccc2n1	·	-3.7	0.6	5.2%[15.4 µM]	-9.3	·
COc1ccc(-c2nc(CSCC(=O)NCc3ccc4c(c3)OCO4)c(C)o2)cc1	10.5%	2.3	-0.7	?	-0.4	1.0%
Cc1ccc(S(=O)(=O)NN=C2C3CC4CC(C3)CC2C4)cc1[N+](=O)[O-]	0.5%	3.3	0.6	6.7%	-6.1	?
CCCCCC(=O)N1c2ccccc2C(C)(c2ccccc2)CC1(C)C (stereo not drawn)	·	·	1.6	·	-27.4	-1.4%
O=C(Nc1ccc(Oc2cccnc2)cc1)c1cccc([N+](=O)[O-])c1	-6.1%	5.5	0.0	3.0%	5.8	-7.4%
CC(=O)c1ccccc1NC(=O)C1CCCN(C(=O)c2ccc(Cl)cc2)C1 (stereo not drawn)	-28.5%	·	1.0	26.9%	-20.4	-3.6%
Cn1nnnc1SCc1ccc(CSc2nnnn2C)cc1	5.1%	-0.7	0.4	-69.3%[inhibitor]	6.9	·
O=C(CCC(=O)Nc1ccccc1)NNS(=O)(=O)c1ccccc1[N+](=O)[O-]	2.4%	4.2	0.2	9.1%[15.4 µM]	-4.6	·
CCc1nnc(NC(=O)C2Cc3ccccc3CN2S(=O)(=O)c2ccc(C)cc2)s1 (stereo not drawn)	?	1.7	3.8	2.6%	46.4	-1.4%
Cc1cc(C)c(S(=O)(=O)N2CCOC2CNC(=O)C(=O)NCCCN2CCCC2=O)c(C)c1 (stereo not drawn)	2.9%	·	-0.2	1.3%[15.4 µM]	-12.3	1.2%
COc1ccc(S(=O)(=O)N2CCC(C(=O)NCc3ccco3)CC2)cc1C	-6.5%	1.3	-0.8	-0.4%[15.4 µM]	-10.3	·
COc1ccc(OC)c(-c2cc(C(=O)N3CCc4ccccc4C3)no2)c1	-12.2%	1.7	2.5	-55.6%[inhibitor]	21.2	25.1µM*
COc1ccccc1/C=C/CN1CCOCC1	2.5%	1.5	0.9	-0.3%	-11.3	-1.2%
CC(C)CC1=NN(C(=O)c2cccnc2)C(O)(C(F)(F)F)C1 (stereo not drawn)	9.3%	11.7	1.1	1.8%	-2.5	1.0%
COc1cc(/C=N/n2c(C3CCCCC3)n[nH]c2=S)cc(Br)c1O	-18.8%	-2.7	·	10.4%	·	-4.4%
CCOc1nc(-c2ccccc2Cl)nc2ccccc12	?	2.3	7.1	0.5%[15.4 µM]	17.2	·
CCCCCc1nc(N)c(C#N)c(-c2ccco2)c1CCCC	-27.5%	-0.8	0.1	5.8%	9.1	25.1µM*
Cc1[nH]n(-c2ccccc2)c(=O)c1/C=N/N1C(=O)c2ccc3c4c(ccc(c24)C1=O)CC3	?	3.8	-0.8	6.7%[15.4 µM]	-2.0	-0.1%
Other structures follow:
SMILES	gsp antag	Menin-MLL FL inh	TRPML1 agonist	gsp ag	TRPML1 blocker	ClpP mod
O=C(CSc1ccccc1C(=O)O)NCc1ccccc1	14.7%	-6.4	-0.9	-13.1%[15.4 µM]	-14.5	-25.0%
CN(C(=O)CNc1ccccc1Cl)C1CCS(=O)(=O)C1 (stereo not drawn)	7.0%	·	0.0	19.8%	-0.9	1.3%
CCc1cccc(C)c1NC(=O)c1cc(S(=O)(=O)N2CCOCC2)cn1C	·	·	-0.6	·	-9.0	2.0%
CC[C@]1(C(=O)OC)[C@H]2C(=O)N(C)C(=O)[C@H]2[C@H]2CN=C(SCc3ccc(C#N)cc3)N21	9.2%	·	1.2	·	1.6	-0.6%
Cc1cc(C)nc(N2CCC(C(=O)N3CCN(c4cc(Cl)ccc4C)CC3)CC2)n1	28.2µM*	-0.2	3.2	?	6.1	-20.2%
COc1cccc(CN2CC(C(=O)NCCn3cccn3)CCC2=O)c1 (stereo not drawn)	20.4%	·	-0.7	-141.1%[inhibitor]	-9.1	0.4%
O=C(COC(=O)c1ccccc1C(=O)c1ccc(Cl)c([N+](=O)[O-])c1)NC1CCCCCC1	-42.5%	-0.4	-0.6	-23.4%	-3.1	1.0%
